High-throughput results from PubChem BioAssay.
KCNQ2 inh – KCNQ2 potassium channel inhibitors, primary screen, cell-based, CHO-K1, FluxOR thallium flux, B-score (AID 2156). Potassium voltage-gated channel subfamily KQT member 2 (Rattus norvegicus), O88943. 20 min; stronger effect = lower value; only compounds with negative scores are shown here; some inactives read as strong as hits. B-score at 10 µM. 310,000 tested, 1.1% active;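 active = fluorescence ratio B-score at most minus 3 library SDs, with starting brightness B-score within 2 library SDs, cut at about -5.5 in these data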
Target sequence (O88943 whole entry, looked up): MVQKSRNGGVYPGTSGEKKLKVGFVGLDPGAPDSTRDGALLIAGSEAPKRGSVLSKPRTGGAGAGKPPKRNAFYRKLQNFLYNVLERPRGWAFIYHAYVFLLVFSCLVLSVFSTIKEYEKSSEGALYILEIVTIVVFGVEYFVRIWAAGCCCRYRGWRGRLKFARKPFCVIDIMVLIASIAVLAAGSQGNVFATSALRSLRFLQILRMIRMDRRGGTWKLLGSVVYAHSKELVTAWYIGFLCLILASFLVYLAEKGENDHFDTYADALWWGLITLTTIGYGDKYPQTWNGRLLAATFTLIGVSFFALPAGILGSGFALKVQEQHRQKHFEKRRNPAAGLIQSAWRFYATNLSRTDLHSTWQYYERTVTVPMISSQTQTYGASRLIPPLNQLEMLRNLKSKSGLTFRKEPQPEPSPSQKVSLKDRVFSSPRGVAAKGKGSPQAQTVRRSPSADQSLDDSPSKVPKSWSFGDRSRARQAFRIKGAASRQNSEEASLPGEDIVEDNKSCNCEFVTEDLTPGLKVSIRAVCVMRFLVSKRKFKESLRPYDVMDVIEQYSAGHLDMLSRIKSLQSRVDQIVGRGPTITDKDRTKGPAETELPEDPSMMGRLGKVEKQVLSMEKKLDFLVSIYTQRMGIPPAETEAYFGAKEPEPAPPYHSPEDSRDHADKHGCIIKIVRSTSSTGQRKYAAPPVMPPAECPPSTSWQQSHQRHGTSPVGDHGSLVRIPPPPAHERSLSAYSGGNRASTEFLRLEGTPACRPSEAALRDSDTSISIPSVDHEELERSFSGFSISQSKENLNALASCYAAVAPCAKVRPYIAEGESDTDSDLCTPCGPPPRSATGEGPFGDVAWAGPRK
KCNQ2 inh baseline – also measured in KCNQ2 inh; calls as there; B-score; measured here: initial fluorescence intensity artifact check;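 brightness before thallium and not channel activity; 0 = typical well and far values either way flag optical interference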
* = called active by the depositor; i = inactive. Only part of the results is shown (hit frequency here may not be typical).

SMILES | KCNQ2 inh | KCNQ2 inh baseline
CCN(CC)C(=O)Cn1cc(S(=O)(=O)CC(=O)NCCc2ccccc2)c2ccccc21 | i | -0.86
Cc1ccc(C(=O)O/N=C(\N)c2ccccc2)c(Cl)c1 | i | -0.27
COCCCNC(=O)c1ccc2c3c(onc13)-c1ccccc1C2=O | i | 52
COc1ccccc1CN(C)C(=O)CNC(=O)c1cccc(Cl)c1 | i | -1.2
COC(=O)c1[nH]c2ccc(F)cc2c1NS(=O)(=O)c1ccc(F)c(C)c1 | i | -1.6
CCSC1(SCC)N=C(N)C2(C#N)C(c3ccc(OC)c(OC)c3OC)C12C#N (configuration not stated) | i | -0.33
COc1cc(C)nc(Oc2ccc(/C=N/O)cc2)n1 | i | 0.06
Cc1ccc2c(C)c(C(=O)N3CCCCC3CO)oc2c1C (configuration not stated) | i | -1.1
COc1cc(CC(=O)OCC(=O)Nc2cc([N+](=O)[O-])ccc2F)cc(OC)c1OC | i | 0.89
CC(C)C(=O)NNS(=O)(=O)c1ccccc1[N+](=O)[O-] | i | -1.9
CN(C)C=NCCn1c(N2CCOCC2)nc2c1c(=O)n(C)c(=O)n2C | i | 1.6
CCn1c(CSCc2ccc(C)cc2)nnc1SCC(=O)N1CCN(c2ccccc2)CC1 | -7.8* | 0.57*
N/C(=N\OC(=O)Cc1ccc(-c2ccccc2)cc1)c1ccncc1 | i | -2.2
Cc1cccc(N2CCN(C(=O)COc3cc(=O)n(C)c4ccccc34)CC2)c1C | i | -0.11
COc1ccccc1CNC(=O)CCC(=O)N1Cc2cccc(OC)c2Oc2ncccc21 | i | -0.77
CCc1ncc(CN2CCCC(C(=O)Nc3ccc(-c4cscn4)cc3)C2)cn1 (configuration not stated) | i | -1.2
CCc1nc(NCc2cccnc2)c2oc3ccccc3c2n1 | i | 1.3
COc1ccc(C2NC(C(=O)O)CS2)cc1COCC(F)(F)F (configuration not stated) | i | 0.39
COc1ccc(SC[C@H](CC(C)C)N2CCN(CCc3ccccc3)CCC2=O)cc1 | i | -0.02
CCC(C)(C)NC(=O)c1cc(OC)c(OC)cc1[N+](=O)[O-] | i | 2.2

Sorted by molar mass (highest first): some entries from above.
SMILES | KCNQ2 inh | KCNQ2 inh baseline
CN(C)C=NCCn1c(N2CCOCC2)nc2c1c(=O)n(C)c(=O)n2C | i | 1.6
N/C(=N\OC(=O)Cc1ccc(-c2ccccc2)cc1)c1ccncc1 | i | -2.2
CCC(C)(C)NC(=O)c1cc(OC)c(OC)cc1[N+](=O)[O-] | i | 2.2

Additional entries:
SMILES | KCNQ2 inh | KCNQ2 inh baseline
Cc1nnc(NC(=O)CSc2ccc(-c3ccco3)nn2)s1 | i | 0.97
Cc1cc(C)c(C(=O)OCC(=O)NC(=O)c2ccccc2)c(C)c1 | i | 0.31
COc1ccc(Cl)cc1NC(=O)CCNC(=O)Cn1ccc2ccccc2c1=O | i | 0.33
CCOc1ccccc1-c1nc(CN(Cc2cnn(C)c2)C(C)C)c(C)o1 | i | 0.34
COc1ccc(S(=O)(=O)N2CCN(CC(=O)c3ccc(O)c(O)c3)CC2)cc1 | i | -0.35
Cc1ccc(NS(=O)(=O)c2cccc3nsnc23)cc1 | i | 0.49
CN1CCN(C(=O)C2CC(=O)N(c3ccc(F)c(Cl)c3)C2)CC1 (configuration not stated) | i | 0.4
O=[N+]([O-])c1ccc(N2CCN(Cc3ccccc3)CC2)nc1 | i | 0.16
CCc1ccc(NC(=O)c2cc(S(=O)(=O)N3CCc4ccccc43)cn2C)cc1 | i | -0.79
Cc1ccc(NC(=O)COC(=O)C2CC(=O)N(Cc3ccccc3)C2)cc1S(=O)(=O)N(C)C (configuration not stated) | i | 9.7
O=C1C=CC(=O)N1Cc1ccccc1 | i | -0.7
O=C(c1ccc(NS(=O)(=O)c2ccc(F)cc2)cc1)N1CCC1 | i | 0.28
COc1ccc(C2c3c(oc4ccccc4c3=O)C(=O)N2CCCN2CCOCC2)cc1 (configuration not stated) | i | 1.1
CC1(C)C=Cc2c(ccc3c2OC[C@@H](c2ccc(O)cc2O)C3)O1 | -5.7* | -0.34*
COc1cc(NC(=O)c2cc([N+](=O)[O-])ccc2Br)ccc1NC(=O)c1ccco1 | i | -2.8
CC(C)(C)OC(=O)N1CCC(C(=O)NNC(=O)c2ccc(Cl)cc2Cl)CC1 | i | -0.95
CCN(C(=O)CN1CCOCC1)C1(C)C(=O)c2ccccc2C1=O | i | -0.06
O=C(O)c1cccc(S(=O)(=O)NCCC(c2ccccc2)c2ccccc2)c1 | i | -0.42
Cc1ccsc1C(=CCCN1CCC[C@@H](C(=O)O)C1)c1sccc1C | i | 0.91
CCOP(=O)(OCC)c1nc(-c2ccccc2Cl)oc1N1CCOCC1 | i | -0.35

Some values from above:
For KCNQ2 inh baseline, `COc1ccc(C2c3c(oc4ccccc4c3=O)C(=O)N2CCCN2CCOCC2)cc1` (configuration not stated) is listed with 1.1
For KCNQ2 inh baseline, `CCOP(=O)(OCC)c1nc(-c2ccccc2Cl)oc1N1CCOCC1` is listed with -0.35
For KCNQ2 inh baseline, `O=C(c1ccc(NS(=O)(=O)c2ccc(F)cc2)cc1)N1CCC1` is listed with 0.28
For KCNQ2 inh baseline, `CCN(C(=O)CN1CCOCC1)C1(C)C(=O)c2ccccc2C1=O` is listed with -0.06

Later entries:
SMILES | KCNQ2 inh | KCNQ2 inh baseline
Cc1ccc(NC(=O)NC(=O)CSc2nnc(-c3ccc(OC(F)F)cc3)n2N)c(C)c1 | i | -1.9
O=C(C/C=N\O)Nc1ccc(Oc2ccccc2)cc1 | i | 1.3
O=C(CCCc1c[nH]c2ccccc12)N1CCOCC1 | i | 1.2
Cc1ccc(C2OCC3(CO)COC(c4ccc(C)cc4)N23)cc1 (configuration not stated) | i | -0.17
CSc1c(SCc2ccccc2)cnn(-c2ccccc2)c1=O | i | 1.1
COc1ccc(Nc2cc(=O)n(C3CCCCC3)c(=O)[nH]2)c(OC)c1 | i | 1.1
Cc1ccc(S(=O)(=O)N2C(=O)CCC2C(=O)NCc2ccco2)cc1 (configuration not stated) | i | -0.68
Cc1[nH]c2ccccc2c1C(=O)NS(=O)(=O)Nc1ccccc1 | i | -0.92
Clc1ccc(OCCSc2ncccn2)c2ccccc12 | -5.7* | -1.5*
CC(NC(=O)CNC(=O)Cc1cccc2ccccc12)c1ccc(S(N)(=O)=O)cc1 (configuration not stated) | i | 1.6

Single records, as listed above. Screens in order: KCNQ2 inh | KCNQ2 inh baseline
O=[N+]([O-])c1ccc(N2CCN(Cc3ccccc3)CC2)nc1 is listed as i | 0.16
COc1ccccc1CNC(=O)CCC(=O)N1Cc2cccc(OC)c2Oc2ncccc21 is listed as i | -0.77

Remaining list, next part.
SMILES | KCNQ2 inh | KCNQ2 inh baseline
CN(CC(=O)NCc1ccccc1Cl)CC(=O)Nc1cccc(F)c1 | i | 0.37
CCOc1c(Cl)cc(C2NC(=O)NC(C)=C2C(=O)NCc2ccccc2)cc1OC (configuration not stated) | i | -2.9
Cc1nc(SC(C)C(=O)NCC2CCCO2)c2cc(-c3ccccc3)sc2n1 (configuration not stated) | i | 2.7
N=C1C(c2nc(-c3ccc(Cl)cc3)cs2)=C(O)CN1CCCN1CCOCC1 | i | 1.8
CC1=N/C(=C/c2ccco2)C(=O)O1 | i | 2.9
Cc1ncsc1C(=O)Nc1cccc(C(F)(F)F)c1 | i | 1.5
C=CCN1C(=O)/C(=C2/Sc3ccc(OC)cc3N2C)SC1=Nc1ccc(OC)cc1 | i | -0.5
COc1ccc(OC)c2c(C)cc(N3CCN(C(=O)c4ccc(C)cc4)CC3)nc12 | i | 1.9
CCC(C)Sc1ccc([C@@H]2[C@@H]3C(=O)N(C)C(=O)[C@@H]3[C@]3(C(=O)OC)CCCCN23)cc1OC (some centres not stated) | i | -0.77
Cc1ccccc1C(=O)Nc1ccc(Cl)cn1 | i | -2.9
COc1ccccc1CNC(=O)c1cccc(NC(=O)c2ccccc2)c1 | i | 1.5
COc1ccc(O)c(-c2cc(-c3ccccc3[N+](=O)[O-])[nH]n2)c1 | i | 0.02
COc1ccc(-c2nn(-c3ccccc3)cc2C(=O)N2c3ccc(C)cc3C3CN(C)CCC32)cc1 (configuration not stated) | i | 0.02
Cn1c(=O)c2c(SCC(=O)NCc3ccco3)nc(-c3ccccc3Cl)nc2n(C)c1=O | i | -0.44
CCO[C@H]1OC(C(=O)N2CCN(Cc3ccc4c(c3)OCO4)CC2)=C[C@@H](C2CCCCC2)[C@@H]1CCCO | i | -1.1
COc1cc(OC)cc(-c2nc(-c3cc4cc(C)ccc4nc3OC)no2)c1 | i | 0.66
Cc1cc(C)c2c(N=NN(C)C)[nH]nc2n1 | i | 1.9
COC(=O)c1cc(C(=O)NCCCN2CCOCC2)cc([N+](=O)[O-])c1 | i | 0.78
COc1ccc(SCc2noc(C(=O)NC(C)C)c2C(=O)O)cc1 | i | 0.38
Cc1ccc(C)c(NC(=O)CSc2cccc3cccnc23)c1 | i | 0.02
CSc1nc2sccc2c(=O)[nH]1 | i | 1.1
CCN1CCN(c2nc3ccccc3nc2C(C#N)S(=O)(=O)c2ccc(C)cc2)CC1 (configuration not stated) | i | 0.04
O=C(CSc1nc2ccccc2[nH]1)NC1CCCC1 | i | 1.4
Cc1ccc2nc(-c3ccc(SCC(=O)N4CCc5ccccc54)nc3)[nH]c2c1 | i | -0.54
S=C(NCc1ccccc1)N1CCn2cccc2C1c1ccncc1 (configuration not stated) | i | 0.81
CC1CCC(NC(=O)c2ccc(NS(=O)(=O)c3ccc4[nH]c(=O)[nH]c4c3)cc2)CC1 (configuration not stated) | i | -0.87
CCN(C(=N)N=C(N)N)c1ccccc1 | i | 1
N#C/C(=C(/O)CSc1ncn[nH]1)c1nc2ccccc2[nH]1 | i | 0.98
COc1ccccc1/C=N/NC(=O)c1ccc(CN2C(=O)c3cccc4cccc2c34)cc1 | i | -1.2
CCOc1ccc(NC(=O)c2cc([N+](=O)[O-])ccc2N2CCOCC2)cc1 | i | 0.93
Cc1ccc(C(C(=O)NC2CCCC2)N(Cc2ccco2)C(=O)CCC(=O)Nc2cc(C)on2)cc1 (configuration not stated) | i | 1
CC(O)(CS(=O)(=O)Cc1ccccc1Cl)C(=O)Nc1cccc(C(F)(F)F)c1 (configuration not stated) | i | -0.33
CCCCCCCCCOC(=O)C(CC(=O)O)N1CCOCC1 (configuration not stated) | i | 0.82
CCc1noc(C)c1C(=O)NNC(=O)c1ccccc1F | i | -0.43
C=CCn1c(CSCc2ccc(C)cc2)nnc1SCC(=O)NCc1ccccc1 | -8.4* | -1.4*
CCOC(=O)C1C(=O)C=C(c2ccc(C)cc2)CC1c1ccco1 (configuration not stated) | i | -0.2
CC(=O)c1c(C)[nH]c(C(=O)CSc2nc3ccccc3c(=O)n2CCCN2CCOCC2)c1C | i | -0.02
CCOC(=O)Cc1cc(=O)n2[nH]cc(-c3cccc(Br)c3)c2n1 | i | -0.48
O=C(OCN1C(=O)C(=O)c2ccccc21)c1ccc(Cl)cc1 | i | 1.6
COc1c(C)cc(C(=O)C2CCCN(C(=O)c3ccoc3)C2)cc1C (configuration not stated) | i | -1.8
Cc1ccc(NC(=O)CSc2nnc(CN3CCOCC3)n2-c2ccccc2)cc1 | i | -2
CCc1ccc(OCC(=O)NC(C)C)cc1 | i | -0.68
O=C(CN1C(=O)COc2ccccc21)N1CCOCC1 | i | -1.4
O=C(C1CCCN(S(=O)(=O)c2cccc3cccnc23)C1)N1CCc2ccccc21 (configuration not stated) | i | 2.6
CCCn1c(C(C)Nc2nc(C)cs2)nc2cc(Cl)c(Cl)cc21 (configuration not stated) | i | -1.3
C=CCSc1n[nH]c(-c2cccs2)n1 | i | 0.36
O=C(CCCN1C(=O)/C(=C/c2ccc3c(c2)OCO3)SC1=S)Nc1ccc(C(=O)O)cc1 | i | 4.2
COc1ccc(C(=O)Oc2ccc(/C=N/O)cc2)cc1 | i | -0.12
Fc1cccc(Cn2ccc(-c3ccc4c(c3)OCO4)n2)c1 | i | -1.5
CC1CCN(c2ccccc2NC(=O)c2ccc([N+](=O)[O-])o2)CC1 | i | 0.27

Reformatted: entries from further up.
smiles,KCNQ2 inh,KCNQ2 inh baseline
COc1ccc(C(=O)Oc2ccc(/C=N/O)cc2)cc1,i,-0.12
Fc1cccc(Cn2ccc(-c3ccc4c(c3)OCO4)n2)c1,i,-1.5
CC1CCN(c2ccccc2NC(=O)c2ccc([N+](=O)[O-])o2)CC1,i,0.27

Next part
SMILES | KCNQ2 inh | KCNQ2 inh baseline
COc1ccccc1-c1nn2c(C3COc4ccccc4O3)nnc2s1 (configuration not stated) | i | 0.08
Cc1[nH]c2ccccc2c1C(=O)COC(=O)c1ccc[n+]([O-])c1 | i | -0.83
Cc1ccc(-n2ncc3c(=O)n(CC(=O)N4CCN(c5ccccc5)CC4)cnc32)cc1 | i | -0.27
COc1cc(/C=N/NC(=O)c2ccc(=O)[nH]n2)ccc1O | i | 1.6
COc1cccc(NC(=O)/C=C/c2ccc([N+](=O)[O-])cc2)c1 | i | -0.98
COc1ccc(N2CCN(Cc3cc(=O)oc4cc(C)c(Cl)cc34)CC2)cc1 | i | -0.36
COc1ccc(OC)c(N(CC(=O)Nc2ccccc2F)S(=O)(=O)c2ccccc2)c1 | i | 0.9
Cc1ccccc1C(=O)NC(=S)NCCN1CCOCC1 | i | 2.1
Cn1c(SCC(=O)c2ccccc2)nnc1-c1ccco1 | i | 0.87
CCCc1cc(C(=O)N2CCCC(C(=O)c3cc(C)c(OC)c(C)c3)C2)n(C)n1 (configuration not stated) | i | -0.83
CN1CCc2nc(SCc3ccc(C(C)(C)C)cc3)c(C#N)cc2C1 | i | -0.74
Cc1ccc(C(C)(C)C)cc1S(=O)(=O)Nc1nc2ccccc2nc1Cl | i | -0.46
CC(C)CN(C)C(=O)CCc1nnc(Cc2cccc(C(F)(F)F)c2)o1 | i | 1.6
Fc1cc(NCc2ccccc2)nc(NCc2ccccc2)n1 | i | 0.5
Cc1cc(O)c(Oc2cc(C)cc(O)c2O)c(O)c1 | i | 0.08
